# Calb FLC – C. albicans growth modulation with fluconazole; C. albicans CaCi-2 (fluconazole-resistant clinical isolate) + fluconazole, Alamar Blue growth, 48 h; growth inhibition, % (no concentration beside the values); hit rate 0.57% among 300,000; AID 1979;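 active = most replicates above 75%; inconclusive = exactly half above 75%; inactive = most below 75%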;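 note: all wells also contain fluconazole at 8 µg/ml as a sub-toxic cotreatment; 0% = median of DMSO wells and 100% = median of geldanamycin control wells; wells of about 8 µL received 7.5 nL stock; the first replicate is given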
# LANA-H2A inh – blocks KSHV LANA binding to histone H2A/H2B; hit rate 0.6% among 320,000; inhibition, % (no concentration beside the values); AID 2629; cell-free LANA-H2A/H2B peptide, fluorescence polarization; in the data active = inhibition mostly above about 10%, no sharp cut-off; inactive = mostly below about 6.7%;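 note: stock transfer was 7.5 nL into about 10 µL; 0% = median of vehicle wells and 100% = median of positive control wells; one replicate is shown; the record names a cut of 25% in any replicate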
# Target sequence (Q9QR71 whole entry, looked up): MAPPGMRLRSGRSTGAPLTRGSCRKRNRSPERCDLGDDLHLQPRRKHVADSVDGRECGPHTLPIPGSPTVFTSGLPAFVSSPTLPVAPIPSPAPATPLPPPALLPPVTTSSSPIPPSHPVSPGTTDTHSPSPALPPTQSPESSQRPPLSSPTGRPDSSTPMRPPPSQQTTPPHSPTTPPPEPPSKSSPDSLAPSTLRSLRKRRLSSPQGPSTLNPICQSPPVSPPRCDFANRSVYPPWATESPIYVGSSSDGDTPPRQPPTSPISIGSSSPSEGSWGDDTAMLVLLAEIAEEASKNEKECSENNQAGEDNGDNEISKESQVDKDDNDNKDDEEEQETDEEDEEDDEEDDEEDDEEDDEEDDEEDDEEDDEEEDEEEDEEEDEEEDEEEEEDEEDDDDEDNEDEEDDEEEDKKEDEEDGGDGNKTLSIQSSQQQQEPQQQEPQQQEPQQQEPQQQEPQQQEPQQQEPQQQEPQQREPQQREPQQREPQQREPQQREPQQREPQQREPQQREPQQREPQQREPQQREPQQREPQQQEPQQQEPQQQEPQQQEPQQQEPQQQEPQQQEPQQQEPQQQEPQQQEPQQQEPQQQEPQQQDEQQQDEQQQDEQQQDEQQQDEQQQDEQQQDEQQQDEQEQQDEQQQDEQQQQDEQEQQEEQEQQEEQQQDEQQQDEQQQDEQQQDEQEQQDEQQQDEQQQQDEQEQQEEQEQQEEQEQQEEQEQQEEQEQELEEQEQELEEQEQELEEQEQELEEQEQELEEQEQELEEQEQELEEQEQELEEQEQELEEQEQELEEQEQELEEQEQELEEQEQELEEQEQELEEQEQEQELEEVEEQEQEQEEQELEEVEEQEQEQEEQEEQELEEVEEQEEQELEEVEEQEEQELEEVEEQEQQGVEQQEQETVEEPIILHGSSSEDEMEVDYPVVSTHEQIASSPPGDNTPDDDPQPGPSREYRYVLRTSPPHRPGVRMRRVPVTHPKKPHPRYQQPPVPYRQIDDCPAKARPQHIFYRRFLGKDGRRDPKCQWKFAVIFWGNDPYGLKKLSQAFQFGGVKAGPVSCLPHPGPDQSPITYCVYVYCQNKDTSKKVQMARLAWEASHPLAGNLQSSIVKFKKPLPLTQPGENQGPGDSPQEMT
# Beta apoptosis – blocks beta cell apoptosis | INS-1E cytokine-induced death, ATP luminescence, 48 h; percent of positive-control rescue, neutral wells zero | protection from apoptosis, % (test concentration not listed) | hit rate 0.8% among 300,000;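 active = all replicates at 75% or more, or half of them and the mean; inconclusive = half reach 75% but not the mean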;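 note: 0% = cytokine-treated negative control wells and 100% = positive control rescue; higher means more ATP so stronger rescue from cytokine killing; wells of about 40 µL received 100 nL stock; the first replicate is given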
# T cruzi inh – blocks replication of Trypanosoma cruzi; hit rate 1.4% among 300,000; inhibition, % (no concentration beside the values); T. cruzi beta-gal in NIH3T3, luminescence, 90 h; AID 1885;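 active = mean inhibition across valid replicates above about 55%, limit read from the data; inconclusive = mean below that limit but half or more replicates reach it; inactive = mean below it, under half of replicates reach it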;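 note: signal also drops with host cell toxicity which is not excluded here; 0% = plate median of DMSO wells and 100% = zero luminescence signal; higher percent means less beta-gal luminescence so fewer parasites; stock transfer was 50 nL into about 50 µL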
# MLL AF4-AF9 inh – blocks AF4 peptide binding to human AF9; P42568; AlphaScreen, biotin-AF4 peptide binding to FLAG-AF9; inhibition, % at 10 µM; hit rate 0.47% among 350,000;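 active = every replicate reaching a set inhibition limit, whatever the replicate mean, cut at about 25% in these data; inconclusive = mean inhibition reaches that limit but some replicates miss it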;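 note: 0% = plate neutral control median and 100% = total signal loss; the record names both 10 and 1 µM as test concentration; the first replicate is given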
# RanGTP-Imp inh – inhibitors of RanGTP-importin-beta interaction, primary screen, biochemical, FRET, CFP-Ran, YFP-importin-beta, homogeneous | cell-free CFP-Ran/YFP-importin-beta FRET ratio | inhibition, % (no concentration beside the values) | hit rate 1.1% among 300,000 | AID 2216;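 active = most replicates above 15%; inconclusive = exactly half above 15%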;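 note: 0% = DMSO wells and 100% = Ran loaded with GDP instead of GTP; wells of about 40 µL received 100 nL stock; the first replicate is given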
# Vif A3G – HIV-1 Vif–A3G interaction blockers – biochemical, TR-FRET, GST-Vif 1-94, biotin-A3G peptide, dose response retest, primary screen (AID 1117319). TR-FRET GST-Vif / biotin-A3G peptide binding; higher % means a stronger effect; test concentration not given here; strong numbers were not always called active. inhibition, %, or IC50 in µM where a hit was titrated. hit rate 0.57% among 260,000;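 active = above the screen mean plus three standard deviations and confirmed in dose response; inconclusive = results disagree or hit not tested in dose response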;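 note: Vif residues 1-94 fused to GST binding biotinylated APOBEC3G peptide 110-148; 0% = full assay without inhibitor and 100% = GST in place of GST-Vif; retest series ran down from 100 µM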
# A1 inh – inhibitors of the anti-apoptotic protein A1, read as caspase activation | MEF A1-2A-BIM cells, Caspase-Glo 3/7 luminescence, 3 h; percent of clofoctol response, vehicle zero | caspase activation, % (test concentration not listed) | hit rate 0.066% among 330,000;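 active = over half of replicate activation scores above 10%, or exactly half above 10 with the replicate mean above 10; inconclusive = replicate mean below 10 yet half the replicates above 10; inactive = over half of replicates below 10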;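 note: wells of about 30 µL received 50 nL stock; many hits fall short of the cut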
# Numbers without * were called inactive; ? = inconclusive; nt = no result given.
SMILES,Calb FLC,LANA-H2A inh,Beta apoptosis,T cruzi inh,MLL AF4-AF9 inh,RanGTP-Imp inh,Vif A3G,A1 inh
COc1cccc(N2CCN(C(=O)Cn3c(=O)oc4ccccc43)CC2)c1,3,5.6,-1,-9,0.2,-0.6,4%,-0.2
COc1ccc(C(=O)C2CCN(C(=S)NCC3CCCO3)CC2)cc1 (stereo not drawn),3,-2.3,3,-12,-3.0,0.4,nt,-0.1
CC(C)(C)C(=O)N1CCCC1C(=O)O (stereo not drawn),-6,28*,-2,-5,2.2,?,-1%,-1.4
O=C(Cc1ccc2c(c1)OCCO2)N1CCN(c2ccccc2)CC1,-7,5.5,-2,19,2.5,1.0,nt,1.3
COc1ccccc1NC(=O)CC(=O)c1ccccc1,-2,-0.1,-4,-8,0.0,1.0,2%,-0.1
CCN(CC)S(=O)(=O)c1ccc(Oc2ccccc2OC)cc1,-11,7.3,-1,-1,-3.5,-2.0,nt,0.6
OC(CNCCc1ccccc1)c1ccccc1 (stereo not drawn),-17,5.9,-5,8,1.1,0.1,30%,-0.8
Cc1csc(SCC(=O)NC(=O)C2CCCCC2)n1,17,2.1,-7,-3,-2.8,0.0,0%,0.4
COc1ccc(Cc2noc(-c3ccccc3)n2)cc1OC,-20,-1.5,-4,-6,-2.3,4.8,-4%,0.9
Cc1ccc(S(=O)(=O)N(CC(=O)N2CCC(C)CC2)c2cccc(C)c2)cc1,14,-2.9,2,3,nt,3.1,0%,0.4
Cc1ccc(C(=O)NNC(=O)c2ccncc2)cc1S(=O)(=O)N1CCCCC1,2,-1.5,0,-4,11,-4.3,4%,0.0
O=C1[C@@H]2[C@@H]3C[C@@H]([C@H]4ON=C(c5ccc(Cl)cc5Cl)[C@@H]34)[C@@H]2C(=O)N1C1CCCCC1,-2,-3.0,-6,25,-6.0,0.8,0%,-0.1
COc1ccc(CCNC(=O)CCCn2c(=O)[nH]c3cc(OC)c(OC)cc3c2=O)cc1OC,1,-3.4,-3,-14,nt,-0.7,0%,0.3
CC1(C)CC(Nc2ccc(C(F)(F)F)cc2[N+](=O)[O-])CC(C)(C)N1,-24,-0.6,4,20,0.1,nt,-3%,1.0
CCc1ccc(C(=O)NNC(=O)c2ccc(OCC(=O)N3CCOCC3)c(OC)c2)cc1,nt,4.0,0,nt,-1.2,nt,6%,0.5
NS(=O)(=O)c1cccc(NC(=O)COC(=O)CCC(=O)c2cccs2)c1,nt,-5.1,0,nt,0.3,nt,nt,-0.1
O=C(Cc1ccc(-n2cccc2)cc1)NCc1cccs1,-4,0.6,2,-7,nt,3.4,31%,0.0
Cc1ccc(N2N=C(c3ccc(Br)cc3)CCC2=O)cc1,-44,1.8,-1,-5,nt,-2.0,nt,-0.5
Cc1ccc(CNC(=O)CS(=O)CC(=O)O)cc1 (stereo not drawn),3,0.7,-15,-12,nt,0.7,4%,?
O=C(NC1CCCCCCC1)c1ccc2c(c1)N(Cc1ccc(F)cc1)C(=O)CS2=O (stereo not drawn),-14,-0.4,1,12,nt,-1.0,8%,-0.3

# LANA-H2A inh: what is marked active above.
structure	LANA-H2A inh	MLL AF4-AF9 inh	RanGTP-Imp inh	Vif A3G
CC(C)(C)C(=O)N1CCCC1C(=O)O (stereo not drawn)	28*	2.2	?	-1%

# The list continues:
SMILES,Calb FLC,LANA-H2A inh,Beta apoptosis,T cruzi inh,MLL AF4-AF9 inh,RanGTP-Imp inh,Vif A3G,A1 inh
COc1ccc(N(Cc2cc3cccc(C)c3[nH]c2=O)S(=O)(=O)c2ccc(OC)cc2)cc1,3,-0.6,6,10,-4.2,0.7,nt,-0.1
Cc1ccc(S(=O)(=O)CCc2nnc(NC(=O)c3ccco3)s2)cc1,-7,-2.5,0,2,nt,11,-1%,0.9
CCc1ccc(S(=O)(=O)NCc2csc(-c3ccccc3)n2)s1,-2,5.8,-10,-16,nt,?,-5%,-0.2
CCN(CC)c1ccc(/C=N/NC(=S)NC)c(O)c1,16,-2.7,67,50,14,-1.2,-8%,0.0
COC(=O)c1ccc(NC(=O)Cn2nc(C)cc2C)cc1,-6,-1.9,-3,-13,-2.2,-0.9,-2%,0.5
CC12CC3(C)CC(C)(C1)CC(C(=O)NCCc1ccc(S(N)(=O)=O)cc1)(C2)C3,6,1.3,nt,5,-0.4,-1.1,nt,0.3
O=C1CCc2cc(S(=O)(=O)N3CCC(C(=O)NCc4ccccc4Cl)CC3)ccc2N1,-2,-0.9,-1,9,0.9,-1.8,0%,-0.1
C#CCCCc1nc2ccccc2c(=O)n1N,-30,-6.7,-5,-3,nt,-0.8,-4%,0.0
O=C(O)c1ccc(Oc2c(C(F)(F)F)oc3cc(O)ccc3c2=O)cc1,5,-3.8,1,-6,-6.4,24*,-10%,0.1
CCn1cc(C(=O)N2CCCC(N3CCN(c4cccc(C(F)(F)F)c4)CC3)C2)cn1 (stereo not drawn),-15,2.4,3,21,-3.6,-3.1,-3%,-0.8
COC(=O)[C@]1(Cc2ccccc2)N[C@H](CN(C)S(=O)(=O)c2ccc(C(C)(C)C)cc2)[C@@H]2C(=O)N(Cc3ccccc3)C(=O)[C@@H]21,nt,-0.1,14,nt,0.2,nt,nt,0.1
CCN(CC)c1ccc(/C=N/O)cc1,4,-0.8,-3,6,-2.5,2.3,-4%,0.5
CN(c1ccc(C(=O)Nc2ccccc2C(=O)N2CCOCC2)cc1)S(C)(=O)=O,-11,4.9,-5,-3,nt,0.3,-6%,0.1
Cc1onc(-c2ccccc2)c1CNS(=O)(=O)c1ccccc1,4,2.9,3,2,-1.6,0.9,-8%,0.2
O=C(CSc1nc2[nH]ncc2c(=O)[nH]1)c1ccc(Cl)cc1,-2,-7.0,-3,-5,-0.1,-5.1,-28%,1.0
CC(=O)c1n[nH]nc1NC(=O)c1ccccc1,-25,1.1,3,-22,nt,0.4,20%,-0.2
COc1ccccc1C(=O)NCCC(=O)NN1C(=O)NC2(CCCCC2)C1=O,3,2.6,-2,-12,3.0,-3.9,9%,0.2
COc1ccc(CCC(=O)Nc2ccc(C)c([N+](=O)[O-])c2)cc1,0,-6.6,-1,-15,5.7,-0.9,-8%,-0.4
Cc1ccc(O)c(C(=O)CC(=O)c2ccccc2Cl)c1,108*,4.1,19,12,9.3,-0.6,-1%,-9.0
CCOC(=O)c1ccc(CNC(=O)C2CCC(=O)N(CCc3ccccc3)C2)o1 (stereo not drawn),2,-2.0,-5,-14,2.8,-0.4,nt,0.0
COc1ccc(CCNC(=O)C(=O)NCC2OCCN2S(=O)(=O)c2ccc3c(c2)OCCO3)cc1OC (stereo not drawn),8,-1.5,0,17,0.6,?,nt,0.3
COc1cc(/C=C/C(=O)O)cc(S(=O)(=O)Nc2ccc3cn[nH]c3c2)c1OC,nt,1.2,-4,nt,1.3,nt,nt,0.9
COc1cccc(C(O)c2cnc(C(C)C)n2C)c1OC (stereo not drawn),nt,7.7,1,nt,-36,nt,?,0.2
Cc1ccc(S(=O)(=O)NNC(=O)C2CCCCC2)cc1,1,1.2,-7,6,-0.9,2.7,nt,0.1
COCCCn1c(=S)[nH]c2sc3c(c2c1=O)CCCC3,-1,4.7,1,-10,-0.5,-1.5,nt,1.0
CCOC(=O)c1ccccc1NC(=O)c1cccc([N+](=O)[O-])c1,108*,-4.3,3,8,0.5,3.1,?,-0.4
CCOC(=O)c1c(S(=O)(=O)Nc2ccc(F)cc2C)c(C)n(C)c1C,-2,2.0,nt,32,9.2,3.3,-4%,0.9
O=C(NC1=C(NC2CCS(=O)(=O)C2)C(=O)c2ccccc2C1=O)c1ccccc1 (stereo not drawn),-8,-10,41,-27,-0.1,2.0,24%,-5.0
Cn1c(SCC(=O)NCC2CCCO2)ncc(C(=O)Nc2ccccc2)c1=O (stereo not drawn),-1,0.6,nt,-5,-1.0,4.0,-4%,-7.8
COc1ccc(N2CC(C(=O)NCc3cccnc3)CC2=O)cc1 (stereo not drawn),-5,-5.0,-1,-7,nt,-0.6,3%,-8.4
COc1ccc(-c2csc(C3=C(O)CN(CCCN4CCCC4=O)C3=N)n2)cc1OC,-1,1.0,-45,-16,4.5,-0.5,1%,1.0
Cc1ccc(-c2nc(C)sc2CC(=O)O)cc1,4,4.8,1,-8,nt,0.9,2%,-1.4
O=C(Oc1cccc(C(=S)N2CCOCC2)c1)c1ccc([N+](=O)[O-])cc1[N+](=O)[O-],11,8.0,2,9,8.4,0.8,nt,-0.2
Clc1ccc(Cn2nc(-c3ccccc3)nc2-c2ccccc2)cc1,-5,2.3,-2,41,nt,4.9,-4%,-1.3
COc1ccc(C(=O)COC(=O)c2nc3nccc(C)n3n2)cc1F,nt,1.8,-7,nt,-0.4,nt,-23%,1.2
CC(OC(=O)c1ccc(Cl)nc1)C(=O)NC1(C#N)CCCCC1 (stereo not drawn),-12,2.7,-2,?,-0.9,4.2,2%,-0.7
C#CCn1c(S(=O)(=O)Cc2ccc(C)cc2)nc(-c2ccccc2)c1-c1ccccc1,13,-3.5,1,47,nt,1.8,-6%,-1.1
O=C(CCNS(=O)(=O)c1ccccc1C(F)(F)F)NCCCN1CCOCC1,nt,3.8,0,nt,0.0,nt,0%,2.2
O=C(O)c1ccc(N/N=C/c2cccc(F)c2)cc1,11,nt,-5,-14,nt,0.5,2%,-9.6
CN(C)S(=O)(=O)N1CCC(Oc2ccc(C(=O)NCc3cnn(C)c3)cc2)CC1,0,-0.5,4,4,0.1,4.0,-4%,0.7
Cc1cc(C)n(-c2nc(SCC(=O)N3CCCC3)c3c4c(sc3n2)CCCC4)n1,2,-0.9,0,27,nt,5.1,-3%,0.4
CNS(=O)(=O)c1cccc(C(=O)OCc2cc(=O)oc3c(C)c(O)ccc23)c1,15,3.5,7,3,-2.8,1.4,nt,0.2
COCCN(CCOC)c1nc(-c2ccc([N+](=O)[O-])cc2)nc2ccccc12,8,-1.0,7,27,2.6,?,nt,0.8
Cc1ccc(-c2nnc(SCC(=O)NC3CC3)n2N)cc1,-5,-3.5,-2,-5,-3.7,-0.5,10%,-0.8
COc1ccc(N2CCN(C(=O)C(=O)c3c[nH]c4ccccc34)CC2)cc1,-7,-5.9,-1,5,0.0,3.1,nt,0.7
O=C(COC(=O)CCS(=O)(=O)c1ccc(Cl)cc1)NC1CCCCC1,0,-3.5,-5,-10,nt,-3.5,1%,-0.4

# Individual results from above:
# O=C(COC(=O)CCS(=O)(=O)c1ccc(Cl)cc1)NC1CCCCC1 – T cruzi inh: -10
# Cc1cc(C)n(-c2nc(SCC(=O)N3CCCC3)c3c4c(sc3n2)CCCC4)n1 – A1 inh: 0.4
# Cc1ccc(-c2nnc(SCC(=O)NC3CC3)n2N)cc1 – Vif A3G: 10%
# COc1ccc(N2CCN(C(=O)C(=O)c3c[nH]c4ccccc34)CC2)cc1 – Calb FLC: -7
# CNS(=O)(=O)c1cccc(C(=O)OCc2cc(=O)oc3c(C)c(O)ccc23)c1 – A1 inh: 0.2

# Screening results (PubChem BioAssay)

# Rows were taken by chance; 4.3% or so of the library scored in one or more.
